# High-throughput results as filed in PubChem.
# MenB inh: Mtb MenB enzyme inhibition; MenB enzyme assay, absorbance read-out; some hits fall short of the stated cut; inhibition, %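 (about 12 µg/mL by stock and volumes)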; P9WNP5; 0.43% of 100,000 active;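 active = mean of two replicates above 30%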;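 note: 0% = no compound and 100% = wells with inactive enzyme; the first replicate is given; strong numbers were not always called active; inactives centre near -10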
# Target sequence (P9WNP5 whole entry, looked up): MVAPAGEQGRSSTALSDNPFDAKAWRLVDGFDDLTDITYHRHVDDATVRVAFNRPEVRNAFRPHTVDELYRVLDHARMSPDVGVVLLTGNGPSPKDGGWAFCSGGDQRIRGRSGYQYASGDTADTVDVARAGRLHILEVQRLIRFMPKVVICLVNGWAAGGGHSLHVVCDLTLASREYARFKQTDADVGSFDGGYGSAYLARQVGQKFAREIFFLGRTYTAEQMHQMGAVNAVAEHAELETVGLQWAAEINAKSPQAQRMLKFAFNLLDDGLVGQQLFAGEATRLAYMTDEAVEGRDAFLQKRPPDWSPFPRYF
# Mtb MbtI inh: blocks the Mycobacterium tuberculosis siderophore enzyme MbtI. P9WFX0. purified MbtI enzyme, fluorescence intensity read-out. inhibition, %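 (about 17 µg/mL by stock and volumes)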. 0.89% of 100,000 active. AID 493033;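 active = above 50% in both replicates, above 80% if mildly self-fluorescent; inactive = the rest, strongly fluorescent compounds included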;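 note: 0% = mean of negative and 100% = mean of positive controls; one replicate is shown; some compounds called inactive have numbers as strong as hits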
# PV pol inh: inhibitors of poliovirus RNA polymerase binding and polymerization; 0.66% of 150,000 active; poliovirus polymerase elongation, fluorescence polarization; stronger effect = lower value; % elongation, % (compound at 16.7 µg/mL); P03300; AID 588519; in the data active = % elongation below about 90%; note: some results filed as inactive read as strong as hits
# Target sequence (P03300 1749-2209 limits assumed): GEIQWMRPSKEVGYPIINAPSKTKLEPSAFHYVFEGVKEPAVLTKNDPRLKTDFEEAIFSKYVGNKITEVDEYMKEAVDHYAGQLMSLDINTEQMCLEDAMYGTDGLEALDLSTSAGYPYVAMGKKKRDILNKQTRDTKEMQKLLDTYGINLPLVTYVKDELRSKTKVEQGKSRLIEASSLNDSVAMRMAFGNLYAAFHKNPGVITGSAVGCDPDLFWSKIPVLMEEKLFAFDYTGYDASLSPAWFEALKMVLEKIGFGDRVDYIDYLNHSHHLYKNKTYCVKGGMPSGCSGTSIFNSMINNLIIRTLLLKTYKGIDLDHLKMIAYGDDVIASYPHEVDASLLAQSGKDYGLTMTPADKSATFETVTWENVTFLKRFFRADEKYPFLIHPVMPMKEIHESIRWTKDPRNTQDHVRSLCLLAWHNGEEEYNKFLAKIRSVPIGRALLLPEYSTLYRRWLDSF
# PV pol inh intensity: recorded beside PV pol inh, whose call it bears; % elongation; measured here: total intensity read-out; formula for this scale not given here;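 total fluorescence in place of polarization; lower means less elongation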
# * marks the source's active call; other numbers are inactive results; i = inactive; x = not tested or not shown.
# Sample of the layout, three compounds:
1: O=C(Cn1c(=O)c2c(ncn2C2CCCC2)n(Cc2ccccc2)c1=O)NCC1CCCO1 (configuration not stated)
2: Fc1ccc(N2COc3cc4c(cc3C2)OCO4)cc1Cl
3: COc1cccc(C2=Nc3cccc4cccc(c34)N2)c1

assay / compound,1,2,3
MenB inh,-32,4,-6
Mtb MbtI inh,-12,-2,11
PV pol inh,100,101,100
PV pol inh intensity,111,100,101

# The list itself (from the top)
1: O=C(Cn1c(=O)c2c(ncn2C2CCCC2)n(Cc2ccccc2)c1=O)NCC1CCCO1 (configuration not stated)
2: Fc1ccc(N2COc3cc4c(cc3C2)OCO4)cc1Cl
3: COc1cccc(C2=Nc3cccc4cccc(c34)N2)c1
4: CN(C)S(=O)(=O)c1ccc(/C(O)=C(\C#N)c2nc3ccccc3s2)cc1
5: COc1ccc2c(c1)c1c(c(=O)n(-c3ccccc3)c(=O)n1CC(=O)N1CCCC1)n2C
6: CCC(C)SCC(=O)N1CCC(C)CC1 (configuration not stated)
7: c1ccc(Cn2c(-c3cccs3)nc3ccccc32)cc1
8: Brc1c(CSc2nc3ccccc3o2)nc2ccccn12

assay / compound,1,2,3,4,5,6,7,8
MenB inh,-32,4,-6,-17,-5,x,14,-14
Mtb MbtI inh,-12,-2,11,10,125,-6,116,-2
PV pol inh,100,101,100,104,103,101,101,102
PV pol inh intensity,111,100,101,147,104,102,103,100

9: O=c1c(Cl)c(N2CCOCC2)cnn1-c1cnc2ccccc2n1
10: CO[C@H]1C[C@H](O[C@H]2[C@H](C)[C@@H](OC3O[C@H](C)C[C@H](N(C)C)[C@H]3OC(C)=O)[C@@H](C)C[C@]3(CO3)C(=O)[C@H](C)[C@@H](OC(C)=O)[C@@H](C)[C@@H](C)OC(=O)[C@@H]2C)O[C@@H](C)[C@@H]1OC(C)=O (some centres not stated)
11: O=C(CSc1ccc(Cl)cc1)NCCN1CCOCC1
12: O=C1c2ccccc2C(Nc2ccc(S(=O)(=O)N3CCCCC3)cc2)N1c1ccccn1 (configuration not stated)
13: COc1ccc2c(c1)c1c(c(=O)n(Cc3ccccc3)c(=O)n1CC(N)=O)n2C
14: Cc1ccc(F)cc1NC(=O)Nc1cc(C(C)(C)C)nn1C
15: CC(=O)N/N=c1\oc2ccccc2cc1C(=O)Nc1ccccc1
16: CC1=NN(c2ccccc2)C(=O)/C1=C/c1ccc(OC(=O)c2ccco2)c(Cl)c1

assay / compound,9,10,11,12,13,14,15,16
MenB inh,14,-13,13,-17,-25,-16,-17,-32
Mtb MbtI inh,4,-13,-7,5,i,2,7,-8
PV pol inh,102,100,101,102,103,104,102,100
PV pol inh intensity,103,99,101,105,103,103,102,101

17: NC(=S)N1N=C(c2ccccc2)CC1c1ccccc1 (configuration not stated)
18: O=C(c1cccc(-n2cnnn2)c1)N(CCc1ccccc1)Cc1cccs1
19: Cc1ccn(CCC(=O)Nc2ccc(-c3ccno3)cc2)n1
20: N#CCc1ccc(NC(=O)Nc2cccc3ccccc23)cc1
21: O=C(CSc1nccc(-c2cccs2)n1)N1CCOCC1
22: O=C(CSc1ccccn1)Nc1cc(C(=O)O)cc(C(=O)O)c1
23: Nc1ccc(C(=O)Nc2nc3ccccc3s2)cc1
24: Fc1ccccc1-c1n[nH]c(=S)n1CCCN1CCOCC1

assay / compound,17,18,19,20,21,22,23,24
MenB inh,-19,-27,4,-10,-20,9,-11,-8
Mtb MbtI inh,x,-3,-7,-13,0,22,-266,-5
PV pol inh,102,101,101,101,101,103,102,102
PV pol inh intensity,104,106,103,106,108,97,100,100

# Reprinted from the listing, two compounds:
17: NC(=S)N1N=C(c2ccccc2)CC1c1ccccc1 (configuration not stated)
18: O=C(c1cccc(-n2cnnn2)c1)N(CCc1ccccc1)Cc1cccs1

assay / compound,17,18
MenB inh,-19,-27
Mtb MbtI inh,x,-3
PV pol inh,102,101
PV pol inh intensity,104,106

# (cont.)
25: CSc1ncc(Cl)c(C(=O)NCc2ccccc2)n1
26: COc1ccc(N2C(=O)/C(=C\c3ccco3)N=C2SCC(=O)N2CCc3ccccc32)cc1Cl
27: CCCNC(=O)C1CCN(C(=O)c2ccc(C(C)(C)C)cc2)CC1
28: O=C(COC(=O)c1ccco1)c1ccc(-n2nncc2-c2ccco2)cc1
29: Cc1cnc(C(=O)NCc2ccc(F)cc2)cn1
30: CCC(c1nnc(SCC(=O)Nc2ccc(C(=O)Nc3ccccc3OC)cc2)o1)N(C)C (configuration not stated)
31: Cc1nnc(SCCC(=O)Nc2ccc(Cl)cc2)o1
32: CCN(c1ccccc1)S(=O)(=O)N1CCCC(C(=O)O)C1 (configuration not stated)

assay / compound,25,26,27,28,29,30,31,32
MenB inh,x,-24,-6,-2,x,-29,-11,-28
Mtb MbtI inh,-5,1,x,-2,1,6,2,-8
PV pol inh,101,98,108,97,103,106,102,100
PV pol inh intensity,105,90,111,103,104,115,102,101

33: CSc1ncccc1C(=O)NCCOc1ccccc1
34: Cc1csc(/N=C/N(C)C)c1C#N
35: CCOc1ccc(CNC(=O)c2cc(C)[nH]n2)cc1OC
36: O=C1CN(CC(=O)Nc2ccc(SC(F)F)cc2)CCN1
37: CN1C(=O)/C(=c2/[nH][nH]c(=O)/c2=C\C=C\c2ccccc2)C(=O)c2ccccc21
38: Cc1ccc(NC(=O)CSC2CC(=O)NC2=O)cc1 (configuration not stated)
39: CCOC(=O)Cc1cc(=O)[nH]c(/N=C(\N)Nc2cccc(Cl)c2)n1
40: Nn1c(SCCCSc2nnc(-c3ccco3)n2N)nnc1-c1ccco1

assay / compound,33,34,35,36,37,38,39,40
MenB inh,0,-8,-9,11,-14,-11,0,-6
Mtb MbtI inh,-5,13,-22,4,x,21,2,3
PV pol inh,103,102,102,x,84*,96,104,94
PV pol inh intensity,106,105,101,x,77*,98,103,97

41: COC(=O)CN(c1ccc(OC)cc1)S(=O)(=O)c1c(C)noc1C
42: O=C1CSC2(CCCCC2)N1CCO
43: CCn1cc(C(=O)N2CCCCC2)c2cc(OC)c(OC)cc2c1=O
44: Cc1ccc(NC(=O)CN2C(=O)C(C)SC(C)C2=O)cc1 (configuration not stated)
45: CC1=NN(C(=O)Cc2ccccc2)C(C)(C)C1
46: CC(=O)N1CCN(C(=S)c2ccc(-c3ccc(C)cc3)o2)CC1
47: Cc1ccc(C2N(C)c3ccccc3-c3nc4ccccc4n32)o1 (configuration not stated)
48: O=C(c1ccc(I)cc1)N1CCN(c2ccc(O)cc2)CC1

assay / compound,41,42,43,44,45,46,47,48
MenB inh,-4,-2,-13,0,-24,2,-6,11
Mtb MbtI inh,-35,x,1,-3,x,80,117,29
PV pol inh,99,107,97,98,105,96,106,104
PV pol inh intensity,102,100,100,103,109,98,102,104

49: CCN(c1ccccc1)c1ncnc2c1cnn2-c1ccc(C)cc1
50: C=CCNS(=O)(=O)Cc1ccccc1Cl
51: CC1=CC(=O)C2=C(C)CC(O)C3C(C)C(=O)OC3C12 (configuration not stated)
52: N/C(CC(=O)Nc1ccc(N2CCOCC2)cc1)=N\O
53: CCN(C(=O)CSc1nnc(-c2ccco2)n1N)c1cccc2ccccc12
54: CC1(C)CC(n2c(NCCO)nc3c(c2=O)C2(CCCCC2)Cc2ccccc2-3)CCO1 (configuration not stated)
55: O=c1[nH][nH]c2cccc(F)c12
56: Cn1cccc1/C=N/NC(=O)c1ccccn1

assay / compound,49,50,51,52,53,54,55,56
MenB inh,-13,-12,-8,-50,2,-7,-31,-72
Mtb MbtI inh,51,x,-9,-6,-4,x,139,-8
PV pol inh,101,102,100,104,x,102,101,101
PV pol inh intensity,102,93,102,109,x,103,100,104

57: CC(C(O)c1ccccc1)N(C)S(=O)(=O)c1ccc2ccccc2c1 (configuration not stated)
58: CCOc1ccccc1N1C(=O)C2C(c3ccccc3)C=CC(c3ccccc3)C2C1=O (configuration not stated)
59: Cc1ccc(CC(C#N)Sc2nnc(-c3cccs3)n2C2CC2)cc1 (configuration not stated)
60: CCn1c(-c2ccc(Cl)cc2)cs/c1=N\N=C/c1ccc(O)cc1
61: CC(=O)NCc1ccc(C(=O)COC(=O)C(c2ccccc2)c2ccccc2)o1
62: COC(=O)c1ccc(COc2ccccc2Br)cc1
63: CS(=O)(=O)Cc1ccc(C(=O)Nc2ccnn2C2CCCC2)cc1
64: COc1ccc2c(Sc3ccccc3)c(C(=O)NC3CCCC3)[nH]c2c1

assay / compound,57,58,59,60,61,62,63,64
MenB inh,x,-17,1,-43,-2,-22,9,6
Mtb MbtI inh,-3,7,14,8,-6,x,1,14
PV pol inh,102,100,102,103,102,104,107,102
PV pol inh intensity,107,101,105,104,104,106,105,106

65: CCOC(=O)C1CCN(CC(=O)Nc2ccc(SC(F)F)cc2)CC1
66: CCN(C(=O)Cc1cccs1)c1ccccc1
67: O=C(Cn1nc(-c2ccc(Cl)cc2)c2ccccc2c1=O)Nc1cccc2ccccc12
68: CC1CCCC(C)N1C(=O)C1=COCCO1 (configuration not stated)
69: O=C1CC(O)(C(F)F)Oc2ccccc21 (configuration not stated)
70: COC(=O)c1cccc(NC(=O)c2cnccn2)c1
71: O=C1C2ON(c3ccccc3)C(/C=C/c3ccccc3)C2C(=O)N1c1ccc(Br)cc1 (configuration not stated)
72: COCC(=O)n1nc(-c2ccccc2)nc1NCc1ccccc1

assay / compound,65,66,67,68,69,70,71,72
MenB inh,-19,-24,-8,-8,14,-14,-38,-3
Mtb MbtI inh,-16,7,6,3,26,x,x,5
PV pol inh,101,99,101,96,100,106,103,100
PV pol inh intensity,98,100,102,95,101,107,99,102

73: CNC(=O)CCCc1cn(Cc2ccc(C)cc2)c2ccccc12
74: Cc1[nH]n(-c2ccccc2)c(=O)c1N=O
75: O=C(COc1nnc2c(n1)Nc1ccccc1S2)N1CCCc2ccccc21
76: Nc1nc(SCc2cccc3ccccc23)n[nH]1
77: CN(C)CC(C)(C)CNC1CC2CCC1C2 (configuration not stated)
78: COC(OC)c1ccc(C#N)c(SCC(=O)c2ccc(C)cc2)n1
79: Cc1onc(-c2ccccc2)c1-c1csc(-c2ccno2)n1
80: O=C(COC(=O)C1=NNC(=O)CC1)NCC1CCCCC1

assay / compound,73,74,75,76,77,78,79,80
MenB inh,-33,-49,-57,2,-27,-37,-18,-4
Mtb MbtI inh,-8,18,-8,3,-9,6,54,-10
PV pol inh,101,102,103,102,102,104,103,104
PV pol inh intensity,101,102,111,101,101,108,101,107

# Laid out differently: entries from further up
75: O=C(COc1nnc2c(n1)Nc1ccccc1S2)N1CCCc2ccccc21
  MenB inh = -57; Mtb MbtI inh = -8; PV pol inh = 103; PV pol inh intensity = 111
74: Cc1[nH]n(-c2ccccc2)c(=O)c1N=O
  MenB inh = -49; Mtb MbtI inh = 18; PV pol inh = 102; PV pol inh intensity = 102
77: CN(C)CC(C)(C)CNC1CC2CCC1C2 (configuration not stated)
  MenB inh = -27; Mtb MbtI inh = -9; PV pol inh = 102; PV pol inh intensity = 101
73: CNC(=O)CCCc1cn(Cc2ccc(C)cc2)c2ccccc12
  MenB inh = -33; Mtb MbtI inh = -8; PV pol inh = 101; PV pol inh intensity = 101

# (next part)
81: CC(C1CC1)n1nccc1NC(=O)c1ccc(S(=O)(=O)N(C)C)cc1 (configuration not stated)
82: O=c1cnnc(N/N=C/C=C/c2ccccc2)[nH]1
83: O=C(NCc1ccc2c(c1)OCO2)c1ccc(N2CCCC2=O)cc1
84: CC1=C/C(=N\NC(=O)CCN2CCN(c3ccccc3)CC2)CC1
85: COC(=O)c1c[nH]n2c(=O)c(Cc3ccc(F)cc3Cl)c(C)nc12
86: COC(=O)Cn1cc(C(=O)c2cccs2)c2ccccc21
87: O=C1CCCN1C(=O)CSc1nc2c(Cl)cc(Cl)cc2[nH]1
88: O=C(c1ccc2nc(N3CCCCC3)sc2c1)N1CCC2(CC1)OCCO2

assay / compound,81,82,83,84,85,86,87,88
MenB inh,3,12,2,-8,-15,2,-2,0
Mtb MbtI inh,3,2,-7,1,23,4,-10,2
PV pol inh,100,99,101,107,101,101,105,101
PV pol inh intensity,101,102,102,105,104,100,114,100

89: CCOc1ccc(NC(=O)CCNS(=O)(=O)c2ccc(Br)s2)cc1
90: CCCCC(=O)/C=C/C=C\CCCCCCCC(=O)O
91: CC1=C(C#N)C(C)C2=C(CC(C)(C)CC2=O)N1 (configuration not stated)
92: COc1ccc(C)cc1-n1nnnc1SCC(=O)N(CC(C)C)CC(C)C
93: c1ccc(-c2cc(N3CCOCC3)cs2)cc1
94: O=C(Nc1ccc(N2CCOCC2)c2nonc12)c1cc2ccccc2oc1=O
95: c1ccc(-c2cc(-c3ccccc3)c(N3CCCC3)nn2)cc1
96: O=C(NCCCN1CCc2ccccc2C1)NCc1ccccc1
97: CCn1c(Cc2ccccc2)n[nH]c1=S

assay / compound,89,90,91,92,93,94,95,96,97
MenB inh,-33,5,-112,-46,x,6,1,1,0
Mtb MbtI inh,8,x,-80,-7,-39,-7,16,-5,18
PV pol inh,104,99,97,102,101,99,101,101,99
PV pol inh intensity,105,105,99,105,96,99,102,102,104
